SmPrx2 inh: Schistosoma Mansoni Peroxiredoxins (Prx2) | S. mansoni Prx2 activity coupled to TGR/GSH (TGR is thioredoxin glutathione reductase), NADPH fluorescence loss, qHTS; some inactives read as strong as hits | 65,000 tested, 0.07% active | Schistosoma mansoni peroxiredoxin 2 (Prx2) | Potency, µM; active means full or partial inhibition curve with a strong effect at the top dose; inconclusive means weaker partial or single-point curve; inactive means no accepted curve; note: series up to 57 µM; many of its hits are not listed in these tables
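Enzyme mix: 100 uM NADPH, 25 nM TGR, 700 uM GSH, 50 nM Prx2 in 100 mM phosphate pH 7.4, 10 mM EDTA, 0.01% Tween-20. 15 min RT with compound; NADPH/GSH added, H2O2 starts reaction; NADPH fluorescence read 8 min.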
LT uptake inh: qHTS Assay for Anthrax Lethal Toxin Internalization | Potency, µM (doses to about 40 µM), inactives show top-dose activity change, negative = inhibition, actives largely listed as inhibitors | 70,000 tested, 0.67% active | Cells, anthrax lethal toxin internalization, FRET ratio (460/530); active = well fitted falling ratio curve with the 530 nm signal flat; inconclusive = other ratio curves, or a change in one channel alone; inactive = flat curves in the ratio and both channels; the % refers to the ratio; note: % is set by controls: 0 for no effect and ±100 for the full control effect; nearly all actives have a fitted effect of over 50% in size; tested in ME-180 cells; beta-lactamase reporter
* = called active by the depositor; u = inconclusive; x = no result given; & = joins results of further samples; [ ] = remark or other dose. Potency is the fitted concentration of half-maximal effect. The list is partial; rates above refer to the full screens.

SMILES	SmPrx2 inh	LT uptake inh
CC(=O)N1CCC(N2CCN(c3ccccc3F)CC2)CC1	x	-1%
CCCn1c(SCC(=O)c2cc(OC)ccc2OC)nnc1-c1ccco1	>57	-16%
Cn1nnnc1SCC(=O)N1c2ccccc2CCc2ccccc21	>57	8%
Cc1cc(C)c2oc(=O)cc(CN3CCN(Cc4ccc5c(c4)OCO5)CC3)c2c1	>57	-16%
COc1ccc(-c2nn3c(-c4ccncc4)nnc3s2)cc1OC	>57	u
C[N+](C)(C)Cc1ccccc1	x	-10%
CCOC(=O)CSc1nnc(CNC(=O)c2cccs2)n1-c1ccccc1	>57	2%
Cc1ccc2c(CN3CCN(Cc4ccc5c(c4)OCO5)CC3)cc(=O)oc2c1C	>57	u
CC(C)C(C(=O)N1CCOCC1)N1C(=O)c2ccccc2C1=O (configuration not stated)	>57	-1%
COc1ccc(NC(=O)N2CCN(c3cccc(C(F)(F)F)c3)CC2)cc1	>57	-8%
Cn1c(=O)[nH]c(=O)c2c1nc(Sc1nc3ccccc3s1)n2Cc1ccccc1	>57	-20%
CCOc1ccccc1Nc1nc2ccccc2n2cnnc12	>57	9%
COCCn1c(SCc2ccccc2Cl)nc2c1c(=O)[nH]c(=O)n2C	>57	u
CCCNS(=O)(=O)c1ccc(OCC(=O)N2CCC(C(=O)OCC)CC2)cc1	>57	3%
CCOc1ccccc1N1CSC2=C(C#N)C(c3c(OC)ccc4ccccc34)CC(=O)N2C1 (configuration not stated)	>57	u
COc1ccccc1NC(=O)Cn1cnc2sc(C(=O)NCc3ccco3)c(C)c2c1=O	>57	u
O=C1CC(N2CCC(c3nc4ccccc4o3)CC2)C(=O)N1Cc1cccs1 (configuration not stated)	>57	-2%
N#Cc1cccc(NC(=O)CSc2ccccc2)c1	>57	x
CCN(CC)CCCNC(=O)C1CCN(C(=O)c2cc3sccc3n2Cc2ccc(F)cc2)CC1	>57	-19%
CCCCCNc1c(C(=O)OCC)c(=O)[nH]c2ccccc12	x	u
COc1ccc(Cl)c(N2CCN(CCCNC(=O)Nc3ccc(C)cc3)CC2)c1	>57	u
COc1cc2cc(C(c3nnnn3C3CCCC3)N(C)C3CCCCC3)c(=O)[nH]c2cc1OC (configuration not stated)	>57	-26%
CCN1C2=C(C(=O)CCC2)C(c2ccc(O)cc2)C2=C1CCCC2=O	>57	9%
CNC(=O)[C@@H]1C[C@H]1[C@@H](NC(=O)OCc1ccccc1)c1ccccc1	x	12%
Oc1cc2c(cc1O)[C@H]1c3ccccc3CN[C@@H]1CC2	>57	u
Additional results:
SMILES	SmPrx2 inh	LT uptake inh
CCCCOC(=O)C1=C(C)Nc2ncnn2C1c1cccc(OC)c1OC (configuration not stated)	>57	-4%
COc1ccc(-n2c(=O)cc(N3CCN(c4ccccc4F)CC3)[nH]c2=O)cc1	>57	-2%
CCN(CC)S(=O)(=O)N1CCC(C(=O)NC2CCCc3ccccc32)CC1 (configuration not stated)	>57	u
CC(=O)n1nc(-c2cccnc2)nc1N	>57	-2%
O=C(Nc1ccc(NC(=O)c2ccco2)nc1)c1ccccn1	>57	-5%
COc1ccc(Nc2nc(N)nc(CSc3n[nH]c(-c4ccccc4)n3)n2)cc1	>57	-27%
O=C(COc1cc(Cl)ccc1Cl)Nc1nnc(CC(=O)N2CCOCC2)s1	>57	-15%
CCn1c(SCC(=O)N2CCN(c3ccc(F)cc3)CC2)nnc1-c1ccncc1	>57	-9%
COC(=O)CSc1nc2c(c(=O)n(C)c(=O)n2C)n1CCCc1ccccc1	>57	14%
CCCn1c(C)c(C(=O)c2cccc3ccccc23)c2ccccc21	>57	u
COc1ccc(S(=O)(=O)Nc2cc(OC)c(NC(=O)c3ccco3)cc2OC)cc1	>57	-2%
FC(F)(F)c1nc(SCc2ccc(Cl)cc2)n[nH]1	>57	-7%[8 µM]
COC(=O)C1CCN(C(=O)NC2CCCCC2)CC1	>57	1%
O=C(CN1C(=O)c2ccccc2S1(=O)=O)N1CCN(c2ccccc2F)CC1	>57	6%
O=C(Nc1ccc2c(c1)OCCO2)c1c(F)cccc1F	>57	4%
COc1ccc(-c2noc(CCC(=O)Nc3cc(Cl)c(OC)cc3OC)n2)cc1	>57	-20%
N#CCCSCc1ccc(C(=O)O)o1	>57	x
COc1ccc(Cl)cc1S(=O)(=O)N1CCN(C)CC1	>57	1%
Cc1csc(SCC(=O)N2CCCC2)n1	>57	0%
O=C1C2CCCN2C(c2ccccc2)N1c1ccc(Cl)cc1 (configuration not stated)	>57	6%
COC(=O)[C@@]1(Cc2ccccc2)[C@H]2c3cc(C(=O)N(C)C)n(CCO)c3C[C@H]2CN1C(=O)c1ccccc1	>57	-2%
O=C1Nc2cccnc2Sc2ccccc21	>57	u
COc1cc(OC)nc(NC(=O)COC(=O)C2CCCCC2)n1	>57	x
CCOC(=O)C1=C(C)NC(=O)NC1/C(C)=C/c1ccccc1 (configuration not stated)	x	11%
Cc1nc2nc[nH]n2c(=O)c1NC(=O)c1c(-c2ccccc2Cl)noc1C	>57	-10%
Next structures
SMILES	SmPrx2 inh	LT uptake inh
COc1ccc(S(=O)(=O)N2CCCN(CC(=O)Nc3cc(NC(C)=O)ccc3OC)CC2)cc1	>57	23%
O=C(NCc1ccccn1)c1cc2ccccn2n1	>57	2%
CC(C)c1nc(N2CCCC2)c(C#N)c2c1CCCC2	>57	-1%
NC(=O)CC(O)c1cccc(Cl)c1 (configuration not stated)	>57	-23%
O=C(CSc1nnc(C2COc3ccccc3O2)o1)N1CCOCC1 (configuration not stated)	>57	8%
COCCCn1nnnc1SCC(=O)Nc1nc(C)c(C)s1	>57	21%
O=C(CSCc1ccccc1)Nc1ccc2c(c1)OCO2	>57	x
Cn1c(SCC(=O)N(C2CCCCC2)C2CCCCC2)nnc1-c1cccs1	>57	-9%
Cc1cc(C)c(NC2=CC(=O)CC(C)(C)C2)c(C#N)c1	>57	-2%
COC(=O)c1ccc(C2CC(=O)Nc3cc(OC)c(OC)cc32)cc1 (configuration not stated)	>57	5%
Cc1c(N(C(=O)Nc2ccccc2)C2=NCC(C)S2)c(=O)n(-c2ccccc2)n1C (configuration not stated)	>57	-3%
O=C1OCCC=C1[C@@H](O)CCc1ccccc1	x	-4%[1.6 µM]
CC(C)(C)NC[C@H](O)COc1cccc2[nH]c(=O)[nH]c12	>57&>26	u
CC(=O)N(c1ccc2oc(=O)sc2c1)S(=O)(=O)c1ccccc1	>57	u
CCCn1nnnc1SCC(=O)NCc1cccs1	>57	5%
CCOc1ccc(-c2ncncc2-c2ccc(OC)cc2)c(O)c1	>57	-11%
COc1ccccc1C1C(C(=O)c2cc3ccccc3o2)=C(O)C(=O)N1CCN(C)C (configuration not stated)	>57	3%
O=C(c1ccco1)[C@@H]1[C@@H]2C(=O)N(c3ccc(Br)cc3)C(=O)[C@@H]2C2c3ccccc3C=CN21 (some centres not stated)	>57	-27%
Cn1c(=O)n(CCc2ccccc2)c(=O)c2c1nc1n2CCN1Cc1ccco1	>57	-17%
C=CCn1c(NC(=O)c2ccccc2Cl)c(C#N)c2nc3ccccc3nc21	>57	u
CCOCC(=O)Nc1nc2ccc(C)cc2s1	>57	20%
Cn1nnnc1SCC(=O)Nc1nc(-c2ccccc2)c(-c2ccccc2)o1	>57	3%
Cc1cc(C)c2c(N)c(C(=O)N3CCCCCC3)sc2n1	>57	-9%
COC(=O)[C@@H]1C[C@H]1[C@@H](NC(=O)Oc1ccc(F)cc1)c1ccccc1	>11	-18%
COc1ccc(C(CNC(=O)c2ccc(-n3cnnn3)cc2)N2CCOCC2)cc1 (configuration not stated)	>57	u

Compound profiles, from the list above. Order of values: SmPrx2 inh	LT uptake inh
`CCOCC(=O)Nc1nc2ccc(C)cc2s1` reads >57	20%
`CC(=O)N(c1ccc2oc(=O)sc2c1)S(=O)(=O)c1ccccc1` reads >57	u
`COC(=O)c1ccc(C2CC(=O)Nc3cc(OC)c(OC)cc32)cc1` (configuration not stated) reads >57	5%
`COc1ccc(C(CNC(=O)c2ccc(-n3cnnn3)cc2)N2CCOCC2)cc1` (configuration not stated) reads >57	u
`Cn1nnnc1SCC(=O)Nc1nc(-c2ccccc2)c(-c2ccccc2)o1` reads >57	3%

Later entries
SMILES	SmPrx2 inh	LT uptake inh
COC(=O)c1cc(OC)c(OC)c(OC)c1N	>57	1%
COCC(C)NC(=O)c1noc2c1CCc1cc(OC)ccc1-2 (configuration not stated)	>57	18%
CCOC(=O)c1cc(C#N)c(N)nc1C	>57	-2%
Cc1c(C#N)c2ccccc2n1CC(=O)O	>57	-11%
Cn1nnnc1SCc1csc(Nc2ccccc2)n1	>57	-13%
CS(=O)(=O)Nc1cccc(-c2cc(Nc3ccccc3)ncn2)c1	>57	-5%
Cc1oc2nc(SCCCC(=O)NCCO)nc(N)c2c1C	>57	2%
CCc1nc(SCc2cccnc2)[nH]c(=O)c1C	>57	23%
CCOC(=O)CCCCC(=O)c1[nH]c(=O)[nH]c1CSc1nc2ccccc2[nH]1	u	11%
CCc1cc(-c2[nH]ncc2-c2ccc3c(c2)OCO3)c(O)cc1O	>57	-27%
Cn1cnnc1SCCC(=O)Nc1ccccc1	>57	-1%
O=C(CSc1nnc(Cc2cccs2)n1Cc1ccco1)Nc1cc(Cl)cc(Cl)c1	x	u
Cn1nnc(NC(=O)CSc2ccc(Cl)cc2)n1	>57	-20%
O=c1c2cc(N3CCOCC3)ccc2[nH]c(=S)n1CCCN1CCCCC1	>57	-10%
CC(=O)NC1C(=O)Nc2c1cccc2C(F)(F)F (configuration not stated)	>57	2%
O=C(NCc1ccncc1)c1cnccn1	>57	9%
Cn1c(CNc2nc3ccccc3n2CCN2CCCCC2)nc2ccccc21	>57	2%
O=C(Nc1cccc2c1C(=O)NC2=O)c1ccc(S(=O)(=O)N2CCCC2)cc1	>57	-3%
CCCn1c(C)cc(=O)c2cc(NC(=O)c3ccccn3)ccc21	>57	-4%
CCN(CC)c1nc(C#N)cc(-c2ccc(OC)cc2)n1	>57	-6%
Cc1ccn2c(NC3CCCCC3)c(C)nc2c1	>57	-9%
CCN1C(=O)CC(C(=O)NC)SC1=Nc1cc(Cl)c(O)c(Cl)c1 (configuration not stated)	>57	-4%
Cc1ccc(Cn2c(-n3nc(C)cc3C)nc3c2c(=O)[nH]c(=O)n3C)cc1	>57	-6%
Cc1cc2nc(NC3=NCN(CCN4CCOCC4)CN3)nc(C)c2cc1C	>57	x
CCOC(=O)c1sc2ncn(C(C)C(=O)OC)c(=O)c2c1C (configuration not stated)	>57	6%

The closing four entries of the part above come first, to join the parts:
SMILES	SmPrx2 inh	LT uptake inh
CCN1C(=O)CC(C(=O)NC)SC1=Nc1cc(Cl)c(O)c(Cl)c1 (configuration not stated)	>57	-4%
Cc1ccc(Cn2c(-n3nc(C)cc3C)nc3c2c(=O)[nH]c(=O)n3C)cc1	>57	-6%
Cc1cc2nc(NC3=NCN(CCN4CCOCC4)CN3)nc(C)c2cc1C	>57	x
CCOC(=O)c1sc2ncn(C(C)C(=O)OC)c(=O)c2c1C (configuration not stated)	>57	6%
O=c1[nH]c(SCc2ccccc2Cl)nc2c1CCCC2	>57	u
CCN(CC)C(=O)Cn1cnc2c1c(=O)n(C)c(=O)n2C	>57	14%
O=C(c1ccc(Cl)cc1)N1CCN(c2nc(N3CCCCC3)nc(N3CCCCC3)n2)CC1	x	2%
COc1ccc(S(=O)(=O)N2CCC(C(=O)NCCC3=CCCCC3)CC2)cc1OC	x	-1%
COc1ccc(S(=O)(=O)N2CCCC(C(=O)N3CCCCCC3)C2)cc1 (configuration not stated)	>57	15%
COC(=O)Cc1[nH]nc2c1C1(C(=O)N(Cc3ccccc3)c3ccccc31)C(C#N)=C(N)O2 (configuration not stated)	>57	2%
CN(C)c1ccc(CN(C)C2CCCCC2)cc1	>57	-20%
COc1ccc(C2N(c3ccc(F)cc3)C(=O)C3CCCN32)cc1 (configuration not stated)	>57	-1%
COCc1nnc(NS(=O)(=O)c2ccc(C)cc2)s1	>57	-6%
CC1=C(C(=O)OC(C)C)C(c2ccncc2)n2ncnc2N1 (configuration not stated)	>57	u
CCOc1ccc2nc3ccc4[nH]onc4c3c2c1	x	u
O=C(NCc1ccc2c(c1)OCO2)C1CCN(C(=O)Nc2ccc(Cl)cc2)CC1	>57	-13%
CN1C(=O)CSc2ccc(NC(=O)N3CCN(c4ccccn4)CC3)cc21	>57	-8%
O=C(C1CCN(Cc2ccccc2)CC1)N1CCCC1	>57	0%
CSc1ncccc1C(=O)OCn1nnc2ccccc2c1=O	>57	2%
N#Cc1cccc(-c2nc3cnc(Oc4cccc(Cl)c4)nc3n(C3CC3)c2=O)c1	>57	-7%
COc1ccc(CNC(=O)c2csnn2)cc1	>57	u
CCc1nnc(NC(=O)CSc2nnc3scc(-c4ccc(C)cc4)n23)s1	>57	-7%
CCN(CC)CCCCn1c(-c2ccccc2)nc2c(NC3CCCCC3)nc(C)nc21	x	-24%
CCn1c(SCC(=O)N2CCC(C(N)=O)(N3CCCCC3)CC2)nc2ccccc2c1=O	>57	u
COC(=O)C(O)(c1ccc(N(C)S(=O)(=O)c2ccccc2)cc1)C(F)(F)F (configuration not stated)	>57	-9%
CCCCC(=O)Nc1cc(NC(=O)CCCC)cc(C(=O)O)c1	>57	5%

Bioassay records deposited in PubChem by National Center for Advancing Translational Sciences (NCATS).
